Bead autofluor – compound fluorescence in toxin protease inhibitor counterscreen; compound autofluorescence counterscreen, microsphere flow cytometry; hits give high values; fluorescence intensity (concentration not given with the values); 360,000 compounds, 3.1% hits;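 active = at least 3 SD above the mean of all compounds, about 16000 in these data; inconclusive = too few beads counted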;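 also: 100 nL of 1 mM stock went into each well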
PrP UTR inh – inhibition of PrP 5' UTR reporter expression; cell-based PrP 5' UTR mRNA reporter, plate reader; inhibition, % (concentration not given with the values); 340,000 compounds, 0.35% hits; AID 488862;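 active = every replicate at 50% or more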;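 also: 0 = median of the neutral control wells; tested in H4 reporter cells; numbers are from one replicate; inactives centre near -14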
RN4220 kill – kills Staphylococcus aureus RN4220; 330,000 compounds, 0.33% hits; S. aureus RN4220 growth, OD600, 16 h; AID 1259311; inhibition, % (test concentration not listed);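 active = z-score of -3 or lower and OD600 up to 0.18 on both plates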;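 also: plate controls were untreated cells for no effect and reference antibiotic for full effect; stock transfer was 100 nL into about 80 µL; one replicate is shown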
BJeLR lethal – BJeLR cell viability loss. 300,000 compounds, 0.17% hits. AID 1554. BJeLR (HRASV12) viability, CellTiter-Glo ATP luminescence, 48 h; reference of the scale not given here. inhibition, % (no concentration beside the values);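 active = replicate mean above 50%; inconclusive = above 50% but judged a plate artefact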;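 also: 50 nL library stock added to about 25 µL; numbers are from one replicate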
ugtP null kill – kills S. aureus RN4220 lacking UgtP. S. aureus RN4220 ugtP deletion, OD600 growth, 16 h; some inactives read as strong as hits. growth inhibition, % (concentration not given with the values). 330,000 compounds, 0.54% hits. AID 1259309;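 active = z-score under -3 and OD600 up to 0.15 on both plates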;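 also: plate controls were untreated wells for no effect and antibiotic for full effect; wells of about 80 µL received 100 nL stock; the first replicate is given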
Mtb hypoxia rep – inhibitors of hypoxia-regulated fluorescent reporter in Mycobacterium tuberculosis; M. tuberculosis hypoxia-regulated fluorescent reporter, fluorescence; fluorescence inhibition, % (no concentration beside the values); 300,000 compounds, 0.1% hits;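 active = 35 to 45% if threefold the growth effect, above 45% if 1.5-fold the growth effect; inactive = the rest, general growth blockers included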;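 also: wells of about 50 µL received 100 nL stock; 0% = vehicle wells and 100% = reference inhibitor wells; whole bacteria with a GFP reporter of the hypoxia response; strong numbers were not always called active; many hits fall short of the cut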
Mtb hypoxia rep growth – further read-out of Mtb hypoxia rep, marked with its call; growth inhibition, %; measured here: M. tuberculosis growth (absorbance);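 0% = vehicle and 100% = reference antibiotic; read after six days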
* marks the source's active call; other numbers are inactive results; ? = inconclusive; · = no result given; & = joins results of further samples.

Sequence of screens – Bead autofluor	PrP UTR inh	RN4220 kill	BJeLR lethal	ugtP null kill	Mtb hypoxia rep	Mtb hypoxia rep growth
- CC1(C)CC(=O)C=C(NNC(=O)c2ccccc2)C1
    2662	-17	2.1	-5	5	3	6
- CC(=O)Nc1ccc2c(c1)nc1n2CCOC1
    24292*	-3	5.3	-7	2	7	4
- CC1CCCN(c2ccc(C(=O)OCC(=O)N3c4ccccc4Sc4ccccc43)cc2[N+](=O)[O-])C1 (configuration not stated)
    2137	-31	0.7	-11	6	13	10
- CN1Cc2cccc3c2C(Cc2ccccc2S3)C1 (configuration not stated)
    2443	-10	8.4	-6	-2	18	0
- Cc1c(O)ccc(C(=O)CN2CCN(Cc3ccc4c(c3)OCO4)CC2)c1O
    2016	-10	-4.3	11	7	2	4
- Cc1cccc(C(=O)Nc2ccc(NC(=O)Cc3ccc(Cl)cc3)cc2)c1
    2597	-4	0.3	-3	-1	-2	0
- CCC(CC)COC(=O)C1=C(C)NC(=O)NC1c1cc(OC)ccc1OC (configuration not stated)
    3835	-24	5.1	4	-6	7	7
- CCCCCCOc1ccc(-c2ccc(C#N)cn2)cc1
    4023	-13	1.8	0	19	10	7
- COc1ccc(CNC(=O)CN2C(=O)NC3(CCCCCCC3)C2=O)cc1
    3320	-22	-0.2	·	-1	5	5
- c1ccc(N2CCN(c3nc(-c4cccs4)nc4ccccc34)CC2)cc1
    2192	-11	4.5	11	-7	2	3

(further entries)
Sequence of screens – Bead autofluor	PrP UTR inh	RN4220 kill	BJeLR lethal	ugtP null kill	Mtb hypoxia rep	Mtb hypoxia rep growth
- CCOC(=O)CSc1cc(C)nc2ccc(OC)cc12
    4969	-36	4.8	8	2	15	12
- O=C(NCCC1=CCCCC1)c1coc(=O)c(Br)c1
    4306	-19	1.2	20	2	4	14
- CCNc1nc(Cl)nc(N(NC(C)=O)C(C)CC)n1 (configuration not stated)
    2280	-28	6.3	5	6	·	·
- OC(CC1CC12c1ccccc1-c1ncccc12)(c1ccccc1)c1ccccc1 (configuration not stated)
    5889	-11	0.4	-1	-16	4	4
- CC(=O)Nc1ccc2c(c1)C(=O)N(c1cccc3ccccc13)C2=O
    3056	-18	2.5	-10	9	3	-2
- COc1ccc(C=NNC(=O)CCn2nnc3ccccc32)cc1
    ·	·	1.3	·	11	3	4
- COc1ccc(-n2c(O)c(/C=C3\C=Nc4ccc(Br)cc43)c(=O)[nH]c2=O)c(OC)c1
    3425	-12	·	-12	·	·	·
- O=C(CCC1CCCC1)NNC(=O)c1ccccc1O
    ·	-18	-0.7	-4	-1	0	-1
- CCN(CC)C(=O)C1CCCN(c2ccc([N+](=O)[O-])cc2/C=N/NC(=O)c2cccc(O)c2)C1 (configuration not stated)
    3160	7	·	-4	·	·	·
- COc1cc([N+](=O)[O-])ccc1NC(=O)CSc1nncn1-c1cccnc1
    4118	-8	1.1	1	-10	-7	3

The listing continues:
Sequence of screens – Bead autofluor	PrP UTR inh	RN4220 kill	BJeLR lethal	ugtP null kill	Mtb hypoxia rep	Mtb hypoxia rep growth
- O=C(NCc1ccccc1)C12CC3CC(CC(Cl)(C3)C1)C2
    5820	·	1.8	-14	-2	9	11
- CCOc1ccc(CN(C)C(=O)CNC(=O)c2ccc(Br)o2)cc1OC
    6058	-28	-3.8	-10	0	5	8
- NCCCCC(C(=O)N1CCNCC1)n1cc(C(N)CO)nn1 (configuration not stated)
    ·	·	2.2	·	-1	1	-1
- O=C(COC(=O)Cc1ccccc1)Nc1nnc(-c2ccccc2)o1
    ?	0	4.2	1	2	9	8
- CCN(Cc1ccccc1)C(=O)CC1Oc2ccccc2NC1=O (configuration not stated)
    4031	-15	-0.3	-5	-2	·	·
- COc1ccc(S(=O)(=O)N2CCCCCC2)cc1C(=O)OCC(=O)NC(C)(C)C
    4379	-14	5.0	-2	2	4	0
- Cc1nn(CCC(=O)O)c(C)c1C
    12536	-17	2.8	-2	-2	8	3
- CCCCCCC(=O)Nc1ccc(S(=O)(=O)Nc2onc(C)c2C)cc1
    6099	-30	1.1	2	8	1	14
- O=C(O)c1ccccc1C(=O)OCc1c(-c2ccccc2)ncc2ccccc12
    2894	-21	5.6	·	-12	8	6
- CCOC(=O)C1CCN(C(=O)C2CCCN(c3ncnc4c3nc3n4CCCCC3)C2)CC1 (configuration not stated)
    5443	3	-1.0	3	1	-3	2

The results go on:
Sequence of screens – Bead autofluor	PrP UTR inh	RN4220 kill	BJeLR lethal	ugtP null kill	Mtb hypoxia rep	Mtb hypoxia rep growth
- COc1cccc(NC(=O)CSc2nnc(-c3cc(C)n(-c4ccccc4)c3C)o2)c1
    3022	57*	14	8	5	9	8
- CCC(=O)N1c2ccccc2NC2=C(C(=O)CC(C)(C)C2)C1c1cccnc1 (configuration not stated)
    3496	-30	5.9	·	12	16	-4
- CCS(=O)(=O)c1ccc(-c2cccc(NC(=O)c3ccco3)c2)nn1
    ?	-34	-0.9	2	1	3	-4
- COc1ccc2sc(-c3ccc(SC)cc3)c(C#CCO)c2c1
    4074	-4	1.4	·	2	-3	4
- CCCN(C(=O)CCNC(=O)c1ccc(Cl)cc1)c1c(N)n(Cc2ccccc2)c(=O)[nH]c1=O
    ?	·	-0.1	·	2	5	9
- CN(C)S(=O)(=O)c1cccc(NC(=O)c2cccc(S(=O)(=O)N3CCCCC3)c2)c1
    ?	-14	·	8	·	·	·
- O=C(N1CCCCC1)C1(S(=O)(=O)c2ccccc2)CC=CC1
    3639	-11	2.7	-3	2	9	20
- Cc1c(NC(=O)COC(=O)c2ccc[nH]c2=O)c(=O)n(-c2ccccc2)n1C
    7959	-18	2.0	9	5	5	4
- Cc1ccc(S(=O)(=O)N2CCCC2C(=O)N(C)Cc2cccs2)cc1 (configuration not stated)
    19722*	-10	2.7	-1	-8	6	6
- O=C1c2cccc3cccc(c23)C(=O)N1c1cccnc1
    7380	-10	-0.8	11	-3	2	5

(list continues)
| structure | Bead autofluor | PrP UTR inh | RN4220 kill | BJeLR lethal | ugtP null kill | Mtb hypoxia rep | Mtb hypoxia rep growth |
| --- | --- | --- | --- | --- | --- | --- | --- |
| Cc1ccc(N(CC(=O)NN=Cc2cccs2)S(C)(=O)=O)cc1 | · | · | 2.8 | · | 7 | 10 | 10 |
| COc1ccc(N2C(=O)N3[C@H](c4ccc(Cl)cc4)[C@@H]4C(=O)N(C5CCCCC5)C(=O)[C@@H]4[C@]3(C)C2=O)cc1 | 4390 | -9 | · | 8 | · | · | · |
| COc1ccc(/C=N/NC(=O)Cc2ccc(Cl)cc2)cc1OC | 2236 | -11 | · | -5 | · | · | · |
| N#C/C(=N\Nc1cccc(C(F)(F)F)c1)C(=O)c1ccsc1 | 5531 | -27 | · | 25 | · | · | · |
| CCn1cc(C(C)(C)C)c(C#N)c1NC(C)=O | 2633 | -10 | 2.8 | -4 | 2 | · | · |
| O=C(Nc1ccccn1)c1ccc(Br)s1 | 3587 | -46 | 5.3 | -3 | 18 | 12 | -7 |
| Cc1ccc2c(c1)C1CN(C)CCC1N2S(=O)(=O)c1ccc(Oc2ccc([N+](=O)[O-])cc2)cc1 (configuration not stated) | 4560 | 27 | -7.0 | · | -5 | 6 | 10 |
| C=CCn1c(N)c(C(=O)Nc2ccccc2OC)sc1=S | 11352 | -25 | 6.7 | 11 | -3 | 4 | 5 |
| NC(=O)NCCCC(=O)NCC(c1ccccc1Cl)c1c[nH]c2ccccc12 (configuration not stated) | 4039 | -17 | 4.9 | 1 | 0 | 7 | 9 |
| CCOc1cc(CNc2ncnc3nc[nH]c23)ccc1OC | 5838 | -9 | 6.3 | 4 | 6 | 3 | -3 |
| CC(=O)C[C@H]1c2ccccc2S(=O)(=O)N1c1ccccc1 | 4406 | -3 | · | -2 | · | · | · |
| CCNC(=O)C/C(C)=N/NC(=O)C1CCCCC1 | 2572 | -47 | · | -5 | · | · | · |
| Cc1cc(C(=O)NN=C2CCCC(=O)C2)c(C)n1-c1ccccc1 | · | · | 2.6 | · | -8 | 18 | 7 |
| CC(C)(C)c1ccc(C(=O)COC(=O)CN2C(=O)NC3(CCCC3)C2=O)cc1 | 5681 | -8 | 6.8 | -7 | 3 | 4 | 6 |
| Cc1cc(C)cc(C(=O)Oc2coc(CSc3nnc(NC(=O)C4CC4)s3)cc2=O)c1 | 2288 | -12 | · | -3 | · | · | · |
| Cc1ccc2nc(C)c3c(c2c1)SCC3 | · | -9 | 6.5 | -2 | 5 | · | · |
| Cn1cc(S(=O)(=O)Nc2cccc3ccccc23)c(=O)n(C)c1=O | 4031 | -3 | 2.5 | -10 | 5 | 12 | 5 |
| CC(NC(=O)COC(=O)CSc1ccc(F)cc1)c1ccc(F)cc1 (configuration not stated) | ? | -7 | 0.4 | -5 | 2 | 3 | 0 |
| CCN(CC)N=Nc1ccc(S(=O)(=O)Nc2nc(C)cc(C)n2)cc1 | 3630&3791 | -6&-22 | 2.2&-4.3 | 5&-11 | 12&-5 | -3&6 | -3&-1 |
| N#CCCCc1cc2ccccc2cn1 | 3141 | -15 | 8.1 | · | 18 | 4 | 2 |
| COc1ccc(S(=O)(=O)N2CCCOC2CNC(=O)C(=O)NCc2ccccn2)cc1 (configuration not stated) | 6042 | -4 | 2.6 | -7 | 5 | 1 | 3 |
| CC(=O)Nc1ccccc1C(=O)C(=O)Nc1cccc(C(=O)NCC2CCCO2)c1 (configuration not stated) | 4146 | -2 | 3.3 | 0 | 3 | 3 | 10 |
| COc1cc(/C=C/C(=O)Nc2nnc(CC(C)(C)C)s2)cc(OC)c1OC | 2092 | -22 | 2.5 | -12 | -1 | -2 | 5 |
| Cc1nc2ccccc2c2c1C(=O)N(Cc1cccnc1)C2=O | 10454 | -15 | -0.3 | -14 | 2 | 0 | 12 |
| COC(=O)[C@H](Cc1ccc(O)cc1)NC(=O)Cn1cnc2c(OCc3ccccc3)ncnc21 | 3516 | -19 | 0.6 | · | 8 | -3 | 6 |
| COc1ccc(C2NC(=S)NC3=C2CCCC3=C2SCCS2)cc1 (configuration not stated) | 3654 | -53 | 6.0 | 10 | 0 | 0 | -1 |
| CCc1ccc(-c2cc(C(F)(F)F)n3nc(C(=O)Nc4c(C)nn(Cc5ccc(F)cc5)c4C)cc3n2)s1 | 8750 | -31 | 5.1 | -4 | 60 | -1 | 17 |
| O=C(CN1CCCc2ccccc21)Nc1cccc(S(=O)(=O)N2CCOCC2)c1 | 11395 | -11 | 2.3 | · | 2 | -1 | 9 |

One compound at a time (already shown).
Profile of CCNc1nc(Cl)nc(N(NC(C)=O)C(C)CC)n1 (configuration not stated) = Bead autofluor: 2280; PrP UTR inh: -28; RN4220 kill: 6.3; BJeLR lethal: 5; ugtP null kill: 6; Mtb hypoxia rep: ·; Mtb hypoxia rep growth: ·
Profile of CC(=O)Nc1ccc2c(c1)nc1n2CCOC1 = Bead autofluor: 24292*; PrP UTR inh: -3; RN4220 kill: 5.3; BJeLR lethal: -7; ugtP null kill: 2; Mtb hypoxia rep: 7; Mtb hypoxia rep growth: 4
Profile of CCCCCCC(=O)Nc1ccc(S(=O)(=O)Nc2onc(C)c2C)cc1 = Bead autofluor: 6099; PrP UTR inh: -30; RN4220 kill: 1.1; BJeLR lethal: 2; ugtP null kill: 8; Mtb hypoxia rep: 1; Mtb hypoxia rep growth: 14

Assay outcomes: PubChem BioAssay, several laboratories
